STK33 kinase inh: inhibitors of purified STK33 kinase, primary screen, biochemical, ADP-Glo luminescence, homogeneous, cell-free. MBP phosphorylation. 320,000 tested, 0.073% active. inhibition, % at 10 µM. Serine/threonine-protein kinase 33 (Homo sapiens), Q9BYT3. AID 2661, 2010;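 active means inhibition at or above 25%, using the most active replicate where run in duplicate; inactive means inhibition below 25%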
Target sequence (Q9BYT3 whole entry, looked up): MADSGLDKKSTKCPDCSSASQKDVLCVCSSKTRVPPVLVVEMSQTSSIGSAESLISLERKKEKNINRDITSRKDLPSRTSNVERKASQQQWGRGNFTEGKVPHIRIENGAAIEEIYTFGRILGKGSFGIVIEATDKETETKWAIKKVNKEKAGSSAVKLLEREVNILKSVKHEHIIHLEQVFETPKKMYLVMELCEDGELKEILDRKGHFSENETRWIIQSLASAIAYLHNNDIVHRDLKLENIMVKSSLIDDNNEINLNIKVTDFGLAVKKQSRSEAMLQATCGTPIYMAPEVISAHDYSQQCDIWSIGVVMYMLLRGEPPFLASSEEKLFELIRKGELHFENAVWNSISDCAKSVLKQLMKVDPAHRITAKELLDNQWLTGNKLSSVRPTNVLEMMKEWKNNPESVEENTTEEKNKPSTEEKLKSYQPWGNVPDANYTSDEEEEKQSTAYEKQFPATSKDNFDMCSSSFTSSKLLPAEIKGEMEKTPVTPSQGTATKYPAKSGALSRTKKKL
* hit, by the source's call. These rows are one share of the data, and most or all hits are left out here.

SMILES | STK33 kinase inh
CS(=O)(=O)c1sc(C(=O)NC(=S)Nc2ccc(OC(F)(F)F)cc2)c2c1C=CCC2 | -0.4
Cc1cc(S(=O)(=O)N2CCN=C2c2ccccc2)c(C)cc1Cl | -2.1
COc1ccc(/C=N/NC(=O)c2nonc2N)cc1OC | 1.1
Cc1ccc(NC(=S)NCCc2ccc(S(N)(=O)=O)cc2)cc1C | 0.7
CC1CCCCN1C(=O)CSc1nc2cc3c(cc2c(=O)n1Cc1ccc2c(c1)OCO2)OCO3 (stereo not given) | -4.2
COc1ccc(NC(=O)c2cccc(N3C(=O)C4C5C=CC(C5)C4C3=O)c2)cc1 (stereo not given) | 0.7
CCc1nc(SCc2ccc([N+](=O)[O-])cc2)n[nH]1 | -2.4
COc1cc2c(C#N)c(N3CCc4ccccc4C3)nc(N)c2c(N)n1 | 1.0
CC(Sc1nc(-c2ccccc2)cc(C(F)(F)F)n1)C(=O)Nc1sc2c(c1C(N)=O)CCC2 (stereo not given) | -1.0
COc1ccccc1/C=C(/NC(=O)c1ccc(Cl)cc1Cl)C(=O)O | -1.4
CC(=O)Nc1ccc(S(=O)(=O)N(Cc2cc3ccc(C)cc3[nH]c2=O)CC2CCCO2)cc1 (stereo not given) | -1.7
Cc1cc(/C=N/n2cnnc2)c(C)n1-c1cccc(Cl)c1 | -1.0
COc1ccc(CC(=O)OCC(=O)NCc2ccco2)cc1OC | -1.5
O=C(Nc1ccccc1)NC1(C(=O)NCc2cccs2)CCCCC1 | -0.2
COc1ccc(-c2cc(C(F)(F)F)n3nc(C(=O)N4CCCCC4)cc3n2)cc1 | -1.9
CCCCN(C)CCCNC(=O)CS(=O)Cc1nc(-c2ccc(OC)c(OC)c2)oc1C (stereo not given) | 0.0
Cc1nc(NC(=O)c2cc3c(C)nn(-c4ccccc4)c3s2)sc1C(=O)Nc1ccccc1 | -0.6
Cc1ccc(C(C)C)c(OCCCCCN2CCOCC2)c1 | -0.8
O=c1c2c(n3cnnc3n1-c1ccccc1)-c1ccccc1CC21CCCCC1 | -0.5
CC(C)C(=O)N1CCN(c2ccccc2NC(=O)Cc2ccc(Cl)cc2)CC1 | -2.0
CC1=NN(C(=O)COc2ccc(C)c(C)c2)C(O)(c2ccccc2)C1 (stereo not given) | -1.9
Cc1ccc2cc(CN(CCN3CCCC3)C(=O)Nc3ccc(F)cc3)c(=O)[nH]c2c1C | -0.3
Cc1noc(C)c1COc1ccc(C(=O)OCC(=O)NC23CC4CC(CC(C4)C2)C3)cc1 | 0.0
CCC(C(=O)NCC1CCCO1)N(Cc1ccccc1)C(=O)CNS(=O)(=O)c1ccccc1 (stereo not given) | -0.9
CCCCN(CCCNC(=O)C1CCN(S(=O)(=O)CC)CC1)c1ccccc1 | 1.0
Cc1ccc(-n2c(CSc3nc(C)cc(C)n3)n[nH]c2=S)cc1 | 0.3
COc1ccc(/C=C/C(=O)NCCNC(=O)c2ccccc2)cc1OC | -1.9
O=[N+]([O-])c1cccc(/C=N/N2CCN(c3ccccn3)CC2)c1 | -0.9
O=C(Nc1ccccc1Cl)C1Cc2ccccc2O/C1=N\O (stereo not given) | -1.9
COc1ccc2cc(C(N)=O)c(=Nc3ccccc3)oc2c1 | 7.5

Quoted from the listing:
O=C(Nc1ccccc1Cl)C1Cc2ccccc2O/C1=N\O (stereo not given) | STK33 kinase inh = -1.9
Cc1ccc(-n2c(CSc3nc(C)cc(C)n3)n[nH]c2=S)cc1 | STK33 kinase inh = 0.3
CCC(C(=O)NCC1CCCO1)N(Cc1ccccc1)C(=O)CNS(=O)(=O)c1ccccc1 (stereo not given) | STK33 kinase inh = -0.9
COc1ccc(/C=C/C(=O)NCCNC(=O)c2ccccc2)cc1OC | STK33 kinase inh = -1.9

Following part:
SMILES | STK33 kinase inh
N#Cc1c(NC(=O)c2cnn3cccnc23)sc2c1CCCC2 | 0.3
O=C(NCc1ccco1)/C(=C/c1cccc([N+](=O)[O-])c1)NC(=O)c1ccco1 | -1.0
Cc1ccc(C)c(NC(=S)NNC(=S)Nc2ccc(C(C)C)cc2)c1 | 0.0
CC1CSc2nnc(CCc3ccccc3)n21 (stereo not given) | -0.6
COCc1cc(=O)[nH]c(SCCS(=O)(=O)c2ccc(Cl)cc2Cl)n1 | 0.3
CCN(CC(=O)Nc1c(F)cccc1F)C(=O)C1CCC1 | -0.2
Cc1c(C(=O)OCC(=O)N2CCCC2)cccc1[N+](=O)[O-] | 1.0
Cc1ccc(S(=O)(=O)NCC(C)n2nc(C)nc2C)cc1 (stereo not given) | 0.4
Cc1ccc(CNC(=O)c2sccc2-n2cccc2)cc1 | -0.8
CCOc1ccc(CCNC(=O)C2CCCN(c3nn4c(=O)cc(C)nc4s3)C2)cc1 (stereo not given) | -1.5

As a working copy, some entries already given:
SMILES | STK33 kinase inh
COc1ccc(NC(=O)c2cccc(N3C(=O)C4C5C=CC(C5)C4C3=O)c2)cc1 (stereo not given) | 0.7
CCc1nc(SCc2ccc([N+](=O)[O-])cc2)n[nH]1 | -2.4
COc1cc2c(C#N)c(N3CCc4ccccc4C3)nc(N)c2c(N)n1 | 1.0

The list goes on.
SMILES | STK33 kinase inh
COCCNC(=O)Cn1c(=O)n(Cc2ccco2)c(=O)c2ccccc21 | 0.4
Cc1ccc(C(=O)Nc2ccc3c(c2)OCO3)cc1NC(=O)c1ccco1 | 0.6
CCCCCOP(=O)(OCCCCC)C1(NS(=O)(=O)c2ccccc2)C=CC(=O)c2ccccc21 (stereo not given) | -0.2
CCOc1ccccc1N(CC(=O)OC)S(C)(=O)=O | -0.2
CN(C)CCn1c2c(c(SCC(=O)Nc3ccc4c(c3)OCCO4)nc1=O)CCC2 | -0.3
CCOc1cc(/C=N\Nc2ccc([N+](=O)[O-])cc2)ccc1OCC(=O)Nc1ccc(C)c(C)c1 | -0.5
CCN(CC)c1ccc(C(=O)Nc2ccccc2)cc1[N+](=O)[O-] | 0.1
Cc1ccc(OCCn2c(C)nc3ccccc32)cc1 | -2.4
COc1ccccc1Nc1nc(-c2c(C)[nH]c3ccccc23)cs1 | 2.2
O=C(C1=C(O)C(=O)N(Cc2ccco2)C1c1cccs1)c1cccs1 (stereo not given) | 1.8
Cc1noc(C)c1S(=O)(=O)N1CCC(C(=O)N2CCN(c3ccc(F)cc3)CC2)CC1 | -0.7
Cc1ccccc1NCC(=O)Nc1cc(S(=O)(=O)N2CCCCC2)ccc1C | -0.6
O=C(OCC(=O)N1CCc2ccccc21)c1ccccc1 | -0.4
COc1ccc(CCNC(=O)CSc2ccc(Br)cc2)cc1OC | -0.5
COc1ccc2c(c1OC)C(=O)N(c1ccccn1)C2 | 0.1
COC(=O)c1nnn(-c2ccc(F)c(Cl)c2)c1C(=O)OC | -1.7
O=C(COC(=O)c1cccc([N+](=O)[O-])c1)NCC1CCCO1 (stereo not given) | -1.2
CC12CCC(C(=O)Nc3ccccc3Cl)(C(Br)C1=O)C2(C)C (stereo not given) | -1.2
Cc1ccc(C)c(NC(=O)COC(=O)Cc2ccsc2)c1 | -1.3
CC(=O)N1CCc2[nH]c3ccc(C)cc3c2C1 | 0.9
COc1ccccc1NC(=O)C(C)N(C)CC(=O)Nc1cccc2ccccc12 (stereo not given) | -2.9
COc1ccc(NC(=S)NCCc2c[nH]c3ccc(OC)cc23)c(OC)c1 | -2.1
O=C(NCCN1C(=O)S/C(=C/c2ccccc2)C1=O)C1CCCN1C(=O)c1cccs1 (stereo not given) | -1.6
COc1cc2c(cc1OC)C(C(=O)NCc1ccco1)C(c1cccs1)N(C)C2=O (stereo not given) | 0.8
COc1ccc(CNC(=O)c2ccc(N3CCC4(CC3)CC(c3ccc(Cl)cc3)=NO4)c(NC(=O)c3ccccc3)c2)cc1 | -0.6
CCc1ccc(N(CC(=O)NC2CC2)S(=O)(=O)c2ccc(C)cc2)cc1 | -0.3
CC1=NN(c2ccccc2)C(=O)/C1=C/c1cc(C)n(C2CC2)c1C | 2.0
O=C(NCCOc1ccc(F)cc1)C1CCN(S(=O)(=O)c2ccccc2)CC1 | -1.4
CCOC(=O)CN1C(=O)SC(CC(=O)Nc2nccs2)C1=O (stereo not given) | -2.0
COc1ccc(-n2ncc3c(SCC(=O)N4CCN(c5ccccc5OC)CC4)ncnc32)cc1 | -0.1
O=C(Nc1cccnc1)C1CCN(S(=O)(=O)c2cccc3nonc23)CC1 | -0.7
COc1cc(NS(=O)(=O)c2ccc(NC(=O)c3ccc([N+](=O)[O-])cc3)cc2)ncn1 | 0.2
COc1ccc(C(=O)CCC(=O)Nc2cccnc2)cc1 | -1.3
CC(C)(C)[C@H]1C=C(C(=O)O)O[C@@H](OCCCCO)C1 | -0.9
O=C(N[C@H](CO)Cc1ccccc1)c1ccco1 | -0.2
COc1cc2c(cc1OC)CN(CC(=O)Nc1ccccc1C(=O)NCc1ccccc1)CC2 | -0.2
C[C@H](O)[C@@]1(O)CC[C@H]2[C@@H]3CC[C@@H]4C[C@H](O)CC[C@]4(C)[C@H]3CC[C@@]21C | 0.5
O=C(Cn1nc(-c2ccccc2)ccc1=O)Nc1ccc(NC(=O)c2ccccn2)cc1 | -2.2
O=C(CN1CCCCC1)N/N=C/c1ccccc1Br | 0.5
CCOC(=O)Cc1ccc(NS(=O)(=O)c2ccc(SC)cc2)cc1 | -0.4
CCNS(=O)(=O)c1cc(S(C)(=O)=O)ccc1Cl | -1.3
Cc1noc(NS(=O)(=O)c2ccc(NC(=O)C(F)(F)F)cc2)c1C | 0.0
O=C(OCC(=O)N1CCCc2ccccc21)c1cnc(Cl)c(Cl)c1 | 0.9
CCC(C)NC(=O)C1CCC(CNS(=O)(=O)c2ccc3c(c2)CC(C)N3C(=O)C2CC2)CC1 (stereo not given) | -1.1
Cc1cc(N2CCC(C(N)=O)CC2)nc(-c2ccccc2)n1 | -0.1
Cc1nnc(SCCCOc2ccccc2)nc1C | -0.2
CN(Cc1ccccc1)C(=O)CN(C)S(=O)(=O)c1ccc(F)cc1 | -1.2
Brc1ccc(/C=N/Nc2ccccc2)cc1 | -0.4
CCN(c1ccccc1)c1nc(C#N)nc(N(CC)c2ccccc2)n1 | -0.9
CCNC(=O)/C=C/c1ccccc1[N+](=O)[O-] | 0.3
Remaining list, next part
SMILES | STK33 kinase inh
Cc1ccc(S(=O)(=O)N(C)CCCC(=O)NCc2ccc3c(c2)OCO3)cc1 | 0.8
COc1ccc(C(=O)NCC(C)NC(=O)c2ccc(OC)c(Br)c2)cc1Br (stereo not given) | -0.7
O=C(Nc1ccccc1N1CCCCC1)c1cccc(F)c1 | 0.7
CCc1ccc(CNC(=O)CCCC(=O)n2nc(C)c3ccccc32)cc1 | 0.3
O=C(O)C1=C[C@H](c2coc3ccccc3c2=O)C[C@H](OCCCCO)O1 | -0.5
CC(Sc1nc2cc([N+](=O)[O-])ccc2n1-c1ccc(F)cc1)C(=O)NCc1ccc2c(c1)OCO2 (stereo not given) | -1.3
Cc1ccc(NC(=S)N(CCCN2CCC(C)CC2)Cc2ccco2)cc1 | -1.1
O=C(NCCOc1ccccc1)c1ccc2c(c1)OCO2 | -1.0
COc1ccc(CNC(=O)C2CCN(S(=O)(=O)c3c(C)n[nH]c3C)CC2)cc1 | -1.3
CCOc1ccccc1C(=O)Nc1cc(C(=O)NCCc2ccccc2)ccc1Cl | -0.1

A second format for part of the listing above:
SMILES	STK33 kinase inh
COc1cc2c(C#N)c(N3CCc4ccccc4C3)nc(N)c2c(N)n1	1.0
O=c1c2c(n3cnnc3n1-c1ccccc1)-c1ccccc1CC21CCCCC1	-0.5

Remaining list, next part
SMILES | STK33 kinase inh
O=C(Nc1ccccc1)c1ccc(Br)o1 | -0.9
COc1ccc(-c2nn(C)c(=O)c3ccccc23)cc1CNC(=O)CN1CCOCC1 | -1.3
COC(=O)c1c(/N=C/N(C)C)sc2c1CCN(c1ncc(C(F)(F)F)cc1Cl)C2 | -0.9
Cc1cc(C)c(NC(=O)COC(=O)c2cccc3c2C(=O)c2ccccc2C3=O)c(C)c1 | -2.3
O=C(NCc1cccs1)C(Cc1ccccc1)n1cccc1 (stereo not given) | -0.7
N/C(=N\OC(=O)c1ccc2c(c1)OCO2)c1ccc(Cl)cc1 | -0.5
O=C(Nc1ccccc1F)NC1CCCc2ccccc21 (stereo not given) | -1.9
Cc1ccc(NC(=O)CN(C)C(=O)Nc2ccc(C)cc2)cc1 | -0.3
CSc1ccccc1C(=O)Nc1cc([N+](=O)[O-])ccc1C | -1.2
COC(=O)c1ccc(CNC(=O)Cn2nnnc2CN(C)C(C)C)cc1 | 0.0
Oc1ccc(-c2csc(Nc3ncccn3)n2)cc1 | -0.7
CCNc1nc(NCC)n2c(SCC(=O)Nc3ccccc3[N+](=O)[O-])nnc2n1 | -1.1
O=C1c2ccccc2NC(c2cn[nH]c2-c2ccccc2)N1O (stereo not given) | -0.2
COc1ccc(NC(=O)CSc2nnc3ccc(-c4ccccn4)nn23)c(OC)c1 | -1.7
CC1(C)CC(NC(=O)c2cc(Cl)ccc2Cl)CC(C)(C)N1 | -1.7
CC(C)(C)c1cc(CCC(=O)NCC2CCCO2)cc(C(C)(C)C)c1O (stereo not given) | -1.7
CCOc1ccc(S(=O)(=O)N2CCN(Cc3ccc4c(c3)OCO4)CC2)cc1OCC | -2.9
O=C(OC(C(=O)NCc1ccco1)C(OC(=O)c1ccccc1)C(=O)NCc1ccco1)c1ccccc1 (stereo not given) | -1.5
CCOc1cccc2c1OC1(C)CC2NC(=O)N1c1cccc(C(=O)N2CCN(c3ccccn3)CC2)c1 (stereo not given) | -0.4
CC(=O)c1cccc(NC(=O)COC(=O)COc2c(Cl)cc(Cl)c3ccc(C)nc23)c1 | 2.2

Entries listed so far containing bromine (six):
SMILES | STK33 kinase inh
COc1ccc(CCNC(=O)CSc2ccc(Br)cc2)cc1OC | -0.5
CC12CCC(C(=O)Nc3ccccc3Cl)(C(Br)C1=O)C2(C)C (stereo not given) | -1.2
O=C(CN1CCCCC1)N/N=C/c1ccccc1Br | 0.5
Brc1ccc(/C=N/Nc2ccccc2)cc1 | -0.4
COc1ccc(C(=O)NCC(C)NC(=O)c2ccc(OC)c(Br)c2)cc1Br (stereo not given) | -0.7
O=C(Nc1ccccc1)c1ccc(Br)o1 | -0.9

Assay outcomes (PubChem)
